Assay outcomes as filed in PubChem BioAssay.
Bead autofluor: flagged as autofluorescent in microsphere protease counterscreen. compound autofluorescence counterscreen, microsphere flow cytometry; hits give high values. hit rate 3.1% among 360,000. fluorescence intensity (test concentration not listed);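 active means at least 3 SD above the mean of all compounds, about 16000 in these data; inconclusive means too few beads counted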;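 further: 100 nL of 1 mM stock went into each well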
Sa RN4220 lethal: kills Staphylococcus aureus RN4220; S. aureus RN4220 growth, OD600, 16 h; inhibition, % (test concentration not listed); hit rate 0.33% among 330,000;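 active means z-score of -3 or lower and OD600 up to 0.18 on both plates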;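 further: plate controls were untreated cells for no effect and reference antibiotic for full effect; stock transfer was 100 nL into about 80 µL; one replicate is shown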
Mtb hypoxia rep: inhibitors of hypoxia-regulated fluorescent reporter in Mycobacterium tuberculosis; hit rate 0.1% among 300,000; fluorescence inhibition, % (test concentration not listed); M. tuberculosis hypoxia-regulated fluorescent reporter, fluorescence;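 active means 35 to 45% if threefold the growth effect, above 45% if 1.5-fold the growth effect; inactive means the rest, general growth blockers included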;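 further: wells of about 50 µL received 100 nL stock; 0% = vehicle wells and 100% = reference inhibitor wells; whole bacteria with a GFP reporter of the hypoxia response; strong numbers were not always called active; many hits fall short of the cut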
PrP UTR inh: inhibition of PrP 5' UTR reporter expression | inhibition, % (test concentration not listed) | hit rate 0.35% among 340,000 | cell-based PrP 5' UTR mRNA reporter, plate reader;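 active means every replicate at 50% or more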;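 further: 0 = median of the neutral control wells; tested in H4 reporter cells; numbers are from one replicate; inactives centre near -14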
Sa ugtP lethal: kills S. aureus RN4220 lacking UgtP; hit rate 0.54% among 330,000; S. aureus RN4220 ugtP deletion, OD600 growth, 16 h; some inactives read as strong as hits; growth inhibition, % (test concentration not listed);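 active means z-score under -3 and OD600 up to 0.15 on both plates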;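 further: plate controls were untreated wells for no effect and antibiotic for full effect; wells of about 80 µL received 100 nL stock; the first replicate is given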
BJeLR viability: BJeLR cell viability loss; BJeLR (HRASV12) viability, CellTiter-Glo ATP luminescence, 48 h; reference of the scale not given here; inhibition, % (test concentration not listed); hit rate 0.17% among 300,000;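 active means replicate mean above 50%; inconclusive means above 50% but judged a plate artefact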;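 further: 50 nL library stock added to about 25 µL; numbers are from one replicate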
Mtb hypoxia rep growth: further read-out of Mtb hypoxia rep, marked with its call; growth inhibition, %; measured here: M. tuberculosis growth (absorbance);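 0% = vehicle and 100% = reference antibiotic; read after six days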
Active calls of the source: *; ? = inconclusive; nt = no result given. Rows are unselected. About 4.1% of those tested had a hit in this group.

smiles | Bead autofluor | Sa RN4220 lethal | Mtb hypoxia rep | Mtb hypoxia rep growth | PrP UTR inh | Sa ugtP lethal | BJeLR viability
CCOC(=O)C1=C(C)NC(SC)=C(C#N)C1CC(C)C (stereo unspecified) | nt | 3.3 | 9 | 14 | -27 | 41 | 39
Cc1ccc(S(=O)(=O)NNC(=O)Nc2ccccc2F)c(C)c1 | 5972 | 7.4 | 12 | 16 | -22 | 3 | 10
Cc1ccc(OCCCCNC2CCCCC2)c(C)c1 | 2774 | 3.1 | 11 | 5 | -24 | -1 | 8
CCOC(=O)CCc1c(C)nc(SCC(=O)O)c(C#N)c1C | 4216 | 5.3 | 18 | 12 | -34 | 2 | -1
Cc1ccc(OP(N)(=O)Oc2ccc(C)cc2)cc1 | 3874 | 2.5 | 12 | -5 | 20 | 2 | -10
CCC[C@@H](CNC)NC[C@H](Cc1ccccc1)NCCCCc1ccccc1 | 4347 | nt | nt | nt | -14 | nt | 5
COCCn1c(=NC(=O)c2cc3ccccc3oc2=O)sc2cc(S(N)(=O)=O)ccc21 | 1968 | 3.7 | 6 | 2 | 1 | 3 | -14
COc1cccc(C=Nc2ccc(C)c(F)c2)c1O | 2463 | 3.9 | 10 | -2 | -22 | -1 | -4
O=C(CCn1c(=O)sc2ccccc21)NCc1ccccc1 | 4512 | 9.6 | -2 | 1 | -5 | 0 | -7
O=C(COC(=O)CNC(=O)c1ccccc1Cl)Nc1ccccc1Cl | 2721 | 17 | -2 | 1 | -4 | 17 | nt
Cc1ccccc1Nc1nc(N)nc(C)c1Br | 3651 | 5.3 | 9 | 11 | -7 | -1 | nt
COC(=O)c1scc(C#N)c1N/N=C(\C#N)S(=O)(=O)c1ccc(Cl)cc1 | 3653 | nt | nt | nt | -86 | nt | 9
Cc1ccc(Cl)cc1N1CCN(C(=O)CN(c2ccccc2)S(=O)(=O)N(C)C)CC1 | 4148 | -0.6 | -1 | 0 | -16 | 1 | 1
COc1ccc(NC(=O)/C(=C\c2ccc3c(c2)OCO3)NC(C)=O)cc1 | 2019 | 3.0 | 6 | 12 | -26 | -3 | 2
COc1cc2c(cc1OC)C(c1cccs1)N(C(=O)c1cccc(S(=O)(=O)N(C)C)c1)CC2 (stereo unspecified) | nt | 0.8 | -11 | -6 | -17 | 6 | 9

Molecules listed so far with a halogen (six):
smiles | Bead autofluor | Sa RN4220 lethal | Mtb hypoxia rep | Mtb hypoxia rep growth | PrP UTR inh | Sa ugtP lethal | BJeLR viability
Cc1ccc(S(=O)(=O)NNC(=O)Nc2ccccc2F)c(C)c1 | 5972 | 7.4 | 12 | 16 | -22 | 3 | 10
COc1cccc(C=Nc2ccc(C)c(F)c2)c1O | 2463 | 3.9 | 10 | -2 | -22 | -1 | -4
O=C(COC(=O)CNC(=O)c1ccccc1Cl)Nc1ccccc1Cl | 2721 | 17 | -2 | 1 | -4 | 17 | nt
Cc1ccccc1Nc1nc(N)nc(C)c1Br | 3651 | 5.3 | 9 | 11 | -7 | -1 | nt
COC(=O)c1scc(C#N)c1N/N=C(\C#N)S(=O)(=O)c1ccc(Cl)cc1 | 3653 | nt | nt | nt | -86 | nt | 9
Cc1ccc(Cl)cc1N1CCN(C(=O)CN(c2ccccc2)S(=O)(=O)N(C)C)CC1 | 4148 | -0.6 | -1 | 0 | -16 | 1 | 1

(continued)
smiles | Bead autofluor | Sa RN4220 lethal | Mtb hypoxia rep | Mtb hypoxia rep growth | PrP UTR inh | Sa ugtP lethal | BJeLR viability
CCCCNC(=O)c1ccccc1NC(=O)C1=C(C)OCCS1 | 4134 | 3.0 | 4 | 4 | -20 | 1 | -7
Cc1cccc([C@@H]2[C@@H]3C(=O)N(Cc4ccccc4)C(=O)[C@@H]3[C@]3(Cc4ccc(Cl)cc4)C(=O)N(c4cccc(Cl)c4)C(=O)N23)c1 | 4127 | nt | nt | nt | -17 | nt | 2
CCOC(=O)/C=C1\SCC(=O)N1CC(=O)NCc1ccc(OC)c(OC)c1 | 4432 | 0.6 | -7 | -10 | -35 | 6 | 0
O=C(Nc1cccc(S(=O)(=O)C(F)F)c1)c1ccc(S(=O)(=O)N2CCOCC2)cc1 | 4855 | -2.7 | nt | nt | -2 | -5 | -3
CC(C)c1ccc(NC(=O)C2CC3CCC2C3)cc1 (stereo unspecified) | 3935 | nt | nt | nt | -39 | nt | -1
Cn1c(NN=O)nc2ccccc21 | 4712 | -1.0 | 1 | 2 | 13 | -1 | -13
CC(C)(C)c1ccc(C(=O)NCC(=O)N/N=C/c2ccccc2OCC(=O)O)cc1 | 3951 | nt | nt | nt | -23 | nt | 4
Cc1nc2ccc(NC(=O)c3ccc(S(=O)(=O)N(C)c4ccccc4)cc3)cc2s1 | 2325 | nt | nt | nt | -24 | nt | -11
CCOc1ccc(/C=N/N(C)c2ccccc2)cc1OC | 2849 | nt | nt | nt | -126 | nt | -5
COc1ccc(/C=C(/NC(=O)c2ccccc2)C(=O)NC2CCS(=O)(=O)C2)cc1 (stereo unspecified) | 2198 | 2.1 | 2 | 3 | -2 | 5 | -14
COc1ccc(CCNC(=O)C/C(C)=N/NC(=O)C23CC4CC(CC(C4)C2)C3)cc1OC | 2545 | nt | nt | nt | -4 | nt | 4
COc1ccc(/C=C/CN2CCN(Cc3ccccc3)C(CCO)C2)cc1 (stereo unspecified) | 4705 | -1.8 | 2 | 3 | 76* | -5 | 1
OC(c1ccccc1)(c1ccccc1)C1CCNCC1 | 6185 | nt | nt | nt | 0 | nt | 1
COc1ccc(CCNC(=O)c2cnn(-c3ccc(C)c(C)c3)c2NC(=O)c2ccco2)cc1OC | 22833* | 0.7 | 6 | 12 | -13 | 8 | -2
Cc1ccc(S(=O)(=O)N2CCN(CC(=O)Nc3ccnn3C3CCCC3)CC2)cc1 | 6441 | 2.6 | 7 | 4 | -7 | 8 | nt
Cn1c(=O)c2nnn(N=C(c3ccccc3)C3CC3)c2n(C)c1=O | nt | 2.5 | 7 | 14 | nt | -4 | nt
O=[N+]([O-])c1cc(C(F)(F)F)ccc1Oc1cccnc1[N+](=O)[O-] | 2341 | -6.9 | 3 | 24 | -23 | 17 | 4
CCCC(=O)Nc1ccc2c(c1)nc(CCN1CCN(c3ccccn3)CC1)n2C | 3123 | 8.3 | 10 | 8 | -23 | 16 | 5
Cn1nc(Cc2n[nH]c(=S)n2C)c2ccccc2c1=O | 4345 | 5.1 | 0 | -1 | -18 | 5 | -5
COC(=O)C1=C(O)/C(=C\c2ccc(CNC(=O)C(=O)Nc3ccc(C)c(C)c3)o2)N=C1C | 2239 | 2.6 | nt | nt | -17 | 7 | 9
Cc1cccn2c(=O)nc(SCC(=O)NCc3ccco3)nc12 | ? | 2.6 | -1 | -15 | -3 | 6 | 1
CC(C)CN(C(=O)COC(=O)CCC(=O)c1ccc(Cl)cc1)c1c(N)n(Cc2ccccc2)c(=O)[nH]c1=O | ? | 0.3 | 2 | -2 | -14 | 1 | 2
CCCCCn1c(CN2CCN(c3cccc(Cl)c3)CC2)nc2c1c(=O)[nH]c(=O)n2C | 20547* | nt | nt | nt | -11 | nt | 6
O=C(CCNS(=O)(=O)c1ccc2[nH]c(=O)oc2c1)Nc1cccc(Br)c1 | 4722 | 1.5 | 14 | 5 | -11 | -4 | 2
O=C(O)CCCCCNC(=O)c1ccccc1Br | 6308 | -4.3 | -7 | -4 | -30 | -1 | 7
CC(Oc1cccnc1[N+](=O)[O-])C(=O)Nc1cccc(Cl)c1 (stereo unspecified) | 3642 | -5.7 | 5 | 16 | 6 | -15 | nt
CN(C)S(=O)(=O)c1ccc(C(=O)NCc2nnc(SCC(=O)Nc3ccc(F)cc3)n2-c2ccc(F)cc2)cc1 | 2201 | 1.3 | -1 | 7 | -19 | 4 | 6
COc1ccc(-c2noc(N3CCC(C(=O)Nc4ccccc4OC)CC3)n2)cc1 | 5346 | 2.6 | -11 | -16 | -3 | -2 | -7
O=C(NCCN1CCCC1=O)C1CCC(=O)N(CCc2cccc(F)c2)C1 (stereo unspecified) | ? | -3.0 | 0 | -3 | 7 | 4 | 0
O=C(Cn1c(=O)c2cccn2c2ccc(F)cc21)NCCCN1CCN(c2ccccc2F)CC1 | 4882 | -0.3 | -14 | 11 | -18 | -15 | -1
O=C(Cn1cnc2ccc(Br)cc2c1=O)c1cccs1 | 3346 | 7.1 | 4 | 1 | 2 | 0 | 1
O=C(Cn1cnc2ccccc2c1=O)c1cccs1 | 2948 | 5.2 | 3 | 7 | -15 | -7 | 1
c1ccc(SCc2nc3ccccc3[nH]2)cc1 | 24904* | 2.8 | -12 | -1 | -49 | 2 | 12
O=C(NC1CCCc2ccccc21)c1cccnc1 (stereo unspecified) | 3804 | 3.2 | 6 | 7 | -16 | 6 | 6
COc1ccc(NC(=O)CCC(=O)c2ccc(C(C)C)cc2)cc1 | 3903 | 7.3 | -11 | -7 | -10 | 8 | 1
O=C(NCCCN1CCCC1=O)c1ccc(Cl)c(S(=O)(=O)N2CCCCC2)c1 | 4213 | 6.3 | 4 | -1 | -9 | 10 | nt
CN(C)c1ccc(/C=N/NC(=O)CCc2c[nH]c3ccccc23)cc1 | 2168 | nt | nt | nt | -10 | nt | -6
CN(C)CCCN=Cc1c(O)n(Cc2ccc3c(c2)OCO3)c(=O)c2ccccc12 | nt | 9.2 | -8 | 0 | nt | 6 | 18
Cc1ccc(-c2nc(S(=O)(=O)c3ccc(F)cc3)c(SCC(=O)NCC3CCCO3)o2)cc1 (stereo unspecified) | 8189 | 1.4 | -3 | 0 | -29 | -1 | 4
COc1ccc(/C=C/C(=O)NC(=S)NNC(=O)Cc2cccs2)cc1 | 2430 | nt | nt | nt | -2 | nt | -1
COc1ccccc1N1C(=NC(=O)CCc2ccccc2)SC2CS(=O)(=O)CC21 (stereo unspecified) | 5123 | 2.5 | 5 | -8 | -45 | 11 | 11
CN1C(=O)c2ccccc2Sc2ccc(C(=O)N3CCC4(CC3)OCCO4)cc21 | 19800* | 3.8 | 5 | 11 | -7 | 1 | 10
O=C(NNC(=S)NC(=O)c1ccc(Br)cc1)c1ccc([N+](=O)[O-])cc1 | 3496 | 25 | -7 | -7 | -38 | 6 | -14
COP(=O)(OC)c1nc(-c2cccc3ccccc23)oc1N1CCOCC1 | 1952 | 5.2 | 8 | 0 | -26 | -4 | 4
CCOC(=O)C1C2COc3ccc(Cl)cc3C2N2C(=O)c3ccccc3NC(=O)[C@@]12C (stereo partly specified) | nt | -0.8 | -3 | 13 | nt | 1 | nt
O=C(Nc1ccnn1C1CCN(C/C=C/c2ccccc2)CC1)C1CCCC1 | 6255 | 1.8 | 0 | 14 | 15 | 0 | -2
C=CCNC(=O)c1c(N)n(-c2ccc3c(c2)OCO3)c2nc3ccccc3nc12 | 12429 | 0.9 | 16 | 7 | -7 | -3 | 9
CCOc1ccc(S(=O)(=O)Nc2ccccc2C(=O)NN=Cc2c(OC)ccc3ccccc23)cc1 | nt | 9.5 | -1 | -2 | nt | 0 | nt
CC(NC(=O)CC1CCCCC1)c1ccccc1 (stereo unspecified) | 4040 | -3.4 | 16 | 22 | -52 | 10 | -7
COC(=O)c1cn(-c2ccc(F)cc2)c(=O)c2ccccc12 | 4520 | 4.3 | 9 | 8 | -16 | 3 | -2
O=c1c2[nH]c3ccccc3c2ncn1Cc1ccccn1 | 4052 | 1.1 | nt | nt | -10 | 2 | -2
O=C(O)CCC(=O)Nc1ccc(-c2csc(Nc3cccc4ccccc34)n2)cc1 | 2885 | 1.8 | 1 | 2 | -6 | 3 | nt
CCOc1cc(S(=O)(=O)n2cnc(C)c2)ccc1Cl | 4308 | 1.9 | 3 | -2 | -6 | -3 | -1
